Source: PubChem BioAssay
D2 agonist = human D2 receptor agonism in beta-arrestin assay | P14416 | DiscoveRx PathHunter D2 beta-arrestin, luminescence, 90 min; 100% = 57 uM dopamine signal | activation, % (concentration not given with the values) | 360,000 compounds, 0.084% hits | AID 624465; in the data active = activation above about 40%; inconclusive = about 15% to 40%; inactive = below about 15%; also: the text of the record calls up to 30% inactive
Target sequence (P14416 whole entry, looked up): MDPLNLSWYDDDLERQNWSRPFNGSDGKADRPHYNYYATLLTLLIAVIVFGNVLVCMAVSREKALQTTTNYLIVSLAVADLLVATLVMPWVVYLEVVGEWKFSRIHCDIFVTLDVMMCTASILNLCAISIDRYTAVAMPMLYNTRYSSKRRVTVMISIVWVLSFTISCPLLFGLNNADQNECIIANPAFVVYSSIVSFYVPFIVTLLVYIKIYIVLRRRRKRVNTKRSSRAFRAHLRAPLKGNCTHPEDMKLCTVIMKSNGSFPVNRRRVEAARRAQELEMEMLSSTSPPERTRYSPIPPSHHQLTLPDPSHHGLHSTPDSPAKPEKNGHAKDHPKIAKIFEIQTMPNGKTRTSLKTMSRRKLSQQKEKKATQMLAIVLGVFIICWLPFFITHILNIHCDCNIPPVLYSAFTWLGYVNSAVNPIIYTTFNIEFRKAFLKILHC
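DiscoveRx PathHunter D2 beta-arrestin cells (2,100/well) attached overnight, then compound-stimulated 90 min at 37 C in HBSS/10 mM HEPES/0.1% Tween-20 buffer; beta-galactosidase complementation read by luminescence after 1 h at ambient temperature. Dopamine 57 uM final (EC100) as control.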
PINK1 expr mod = PINK1 expression modulation; AID 624263; 410,000 compounds, 0.2% hits; Potency, µM (doses to about 76.6 µM), for the others: at the top dose activation (PINK1 increase), most hits filed as activators; PINK1 immunofluorescence, high-content cytometry, 24 h; active = well fitted activation curve with a large enough effect; inconclusive = small, poorly fitted or top-dose-only effect; inactive = flat fitted curve, though single readings scatter; cell line not stated here;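 also: potency is read from the fitted curve at half-maximal effect; % of control where 0% means no effect; nearly all actives have a fitted effect of over 65% in size; a mitochondrial uncoupler was the plate control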
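PINK1 protein, normally rapidly degraded, was detected by immunofluorescence after 24 hour compound treatment of a stable cell line. Titration data (5 concentrations) came from laser-scanning cytometry, with CCCP-treated wells as controls.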
CtBP-E1A inh = inhibitors of CtBP/E1A interaction | 340,000 compounds, 0.49% hits | activity change, % (test concentration not listed) | AlphaScreen GST-E1A/His-CtBP binding, 1536-well; stronger effect = lower value; control for the full effect not named in the record | AID 651724; in the data active means activity change below about -65%; inconclusive means about -30% to -65%; inactive means above about -30%; also: % is scaled to controls: 0 for no effect and ±100 for the full control effect
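In 5 uL wells, 23 nL compound meets equimolar GST-E1A and His-CtBP (5X stock 125 nM each) for 2 h, 37 °C. Beads (5X, 50 ug/mL) then 1 h, 37 °C, dark.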
TRPML1 inh = human mucolipin-1 channel inhibition | Q9GZU1 | activity change, negative = inhibition, % (no concentration beside the values) | 390,000 compounds, 0.02% hits | TRPML1-inducible cells, Ca2+ dye fluorescence, FDSS; stronger effect = lower value; inhibition of EC80 agonist-evoked calcium signal; in the data active means activity change below about -50%; inconclusive means about -30% to -50%; inactive means above about -30%;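 also: stimulus is agonist 54-4 at its EC80 concentration; % is scaled to controls: 0 for no effect and ±100 for the full control effect; compound concentration not given in the record; the text of the record puts the active cut at -80%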
Target sequence (Q9GZU1 whole entry, looked up): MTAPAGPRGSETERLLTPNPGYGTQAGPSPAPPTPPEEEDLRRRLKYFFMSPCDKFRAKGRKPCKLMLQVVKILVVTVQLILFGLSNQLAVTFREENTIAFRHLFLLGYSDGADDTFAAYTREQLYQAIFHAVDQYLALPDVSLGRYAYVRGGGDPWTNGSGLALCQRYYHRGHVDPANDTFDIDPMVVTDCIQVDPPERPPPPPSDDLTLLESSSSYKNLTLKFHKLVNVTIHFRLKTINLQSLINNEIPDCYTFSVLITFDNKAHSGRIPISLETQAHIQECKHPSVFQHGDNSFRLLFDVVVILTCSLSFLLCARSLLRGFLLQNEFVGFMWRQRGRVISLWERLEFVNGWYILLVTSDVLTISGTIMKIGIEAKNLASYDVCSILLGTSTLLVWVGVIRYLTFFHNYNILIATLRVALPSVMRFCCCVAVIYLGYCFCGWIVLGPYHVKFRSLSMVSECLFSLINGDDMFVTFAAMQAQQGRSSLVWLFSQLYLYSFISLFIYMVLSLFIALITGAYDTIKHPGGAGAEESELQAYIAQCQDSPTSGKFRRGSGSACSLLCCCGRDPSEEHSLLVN
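TRPML1-DL cells, Tet-induced overnight (~16 h, 37 °C) at 1,500 cells/well, were loaded with Ca8 no-wash dye plus quencher for 45-90 min at room temperature. Compounds were pinned during FDSS kinetic reading; agonist 54-4 at EC80 (4 uM final) then added.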
Six1-Eya2 blk = inhibitors of human Six1/Eya2 interaction | AlphaScreen GST-Six1/His-Eya2 binding, biochemical; stronger effect = lower value; control for the full effect not named in the record | activity change, % (test concentration not listed) | 360,000 compounds, 0.56% hits | Q15475+O00167; in the data active = activity change below about -65%; inconclusive = about -30% to -65%; inactive = above about -30%; also: % is scaled to controls: 0 for no effect and ±100 for the full control effect
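AlphaScreen with GST-Six1 and His-Eya2 (5X mix: 250 nM and 500 nM), glutathione donor and nickel acceptor beads; buffer 50 mM Tris pH 8.0, 300 mM NaCl, 1 mM TCEP; 1 h at 37 C in the dark.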
TRPML1 agonist = activates the human TRPML1 channel; TRPML1-expressing cells, Ca2+ dye fluorescence, FDSS; host cell line not named in the record; reference of the full effect not given here; 410,000 compounds, 0.12% hits; activation, % (concentration not given with the values); in the data active = activation above about 50%; inconclusive = about 30% to 50%; inactive = below about 30%; also: 0% is about no effect; the text of the record puts the active cut at 80%
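TRPML1-DL cells, Tet-induced overnight (~16 h, 37 degrees C), loaded 45-90 min at room temperature with Ca8 no-wash calcium dye plus quencher. FDSS fluorescence: 10 s baseline, compound pin-transfer, 110 s agonist read, then EC80 54-4 (4uM final) and 110 s antagonist read.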
An asterisk follows results filed as active; ? = inconclusive; . = no result given; & = joins results of further samples; [ ] = another dose, or the depositor's remark.

| Structure | TRPML1 inh | TRPML1 agonist | D2 agonist | Six1-Eya2 blk | PINK1 expr mod | CtBP-E1A inh |
| --- | --- | --- | --- | --- | --- | --- |
| CCc1nn(CC(=O)NCCc2ccc(OC)cc2OC)c(=O)c2cc3occc3n12 | -13&-3 | -0.5&0.3 | -3.8 | 1 | 0.4%&1.9% | 3 |
| COc1ccc(C(=O)NC(=S)Nc2ccccc2N2CCOCC2)cc1[N+](=O)[O-] | 3 | 1.8 | -5.6 | -19 | -0.3% | -20 |
| CCOC(=O)CSc1nc(C)cc(=O)[nH]1 | 2 | 3.1 | -1.6 | 1 | 0.6%[38.3 µM] | 5 |
| Cc1c(F)cccc1NS(=O)(=O)c1ccccc1C#N | 8 | -0.6 | 0.7 | 1 | 0.4%[38.3 µM] | 2 |
| COc1ccc(OCCC(=O)OCc2c(C)noc2C)cc1 | 5 | -0.5 | 2.2 | 6 | 0.6% | -5 |
| COc1ccccc1C1=CC(=O)C[C@H](c2ccc(Cl)cc2)C1 | 66 | 3.9 | -2.8 | 27 | 9.2% | 10 |
| O=C(O)CCn1c(=O)[nH]c2ccccc2c1=O | 5 | -0.5 | -4.9 | 1 | -0.2% | 8 |
| COCCC1CCCCN1C(=O)c1ccc(OC2CCN(C(C)=O)CC2)c(OC)c1 (stereo unspecified) | -18 | -0.6 | -2.7 | 0 | 0.3% | 12 |
| COc1ccc(-c2noc(C3CCCN(C(=O)c4ccccc4C)C3)n2)cc1 (stereo unspecified) | 8 | 3.0 | 0.3 | -14 | 1.8% | 6 |
| CC(=O)c1ccc(NC(=O)COC(=O)CCC2CCCC2)cc1 | 6 | -0.1 | -1.1 | 2 | 0.1% | 6 |
| COc1ccc(SC2=C[C@@]3(O)CC[C@@H](O)[C@@](Sc4ccc(OC)cc4)(C2=O)[C@H]3O)cc1 | . | -0.4 | . | -5 | 1.0% | -5 |
| Cc1cc(=O)oc2c3c(cc(OCC(=O)NCc4ccco4)c12)OC(C)(C)CC3 | . | . | -3.0 | -6 | -0.7% | -4 |
| CS(=O)(=O)N(CC(=O)N/N=C/c1cc([N+](=O)[O-])ccc1Cl)c1ccccc1 | -3 | -0.7 | -1.5 | -20 | -1.3% | -26 |
| CC1CCCCN1C(=O)C1CCCCN1S(=O)(=O)c1cccc([N+](=O)[O-])c1 (stereo unspecified) | -3 | 0.5 | -1.1 | -4 | 1.2% | -10 |
| Cc1ccc(C)c(S(=O)(=O)N/N=C/c2ccc(N(C)C)cc2)c1 | -22 | 1.5 | -0.7 | -12 | -0.9% | -12 |
| N#CCC(=O)Nc1ccc(C(=O)OCC(=O)NNC(=O)c2cccs2)cc1 | 23 | 0.9 | -2.4 | -12 | 3.0% | -21 |
| CNC(=S)N(C)c1ccccc1 | -2 | 4.7 | -2.6 | 5 | 2.6% | 2 |
| CCNC(=O)C1(C)CCCN(C(=O)c2nc(C)oc2C)C1 (stereo unspecified) | . | -0.7 | -4.5 | -14 | 0.3% | 0 |
| CCC1CCc2c(sc(NC(=O)C3c4ccccc4Oc4ccccc43)c2C(N)=O)C1 (stereo unspecified) | -5 | -0.3 | -2.9 | -9 | ? | 8 |
| Cc1noc(Cn2c(=O)c3ccccc3n(CC(=O)Nc3ccc(Cl)cc3)c2=O)n1 | -1 | -0.1 | . | . | 0.7% | . |
| CCn1nnc(-c2ccccc2NC(=O)c2cccc(-n3cnnn3)c2)n1 | 0 | 0.7 | 1.1 | 3 | 13%[38.3 µM] | 3 |
| Cc1ccc(-n2ncc3c2CC(C)(C)CC3NC(=O)c2ccccn2)cc1 (stereo unspecified) | -6 | -0.8 | 2.5 | -1 | 2.4% | -5 |
| CCn1cc([N+](=O)[O-])c(C(=O)N2CCCc3ccccc32)n1 | 14 | 0.0 | -6.3 | -8 | -0.7% | -6 |
| CCN(c1ccccc1)S(=O)(=O)c1cc(C(=O)Nc2ccc(F)c(F)c2)ccc1F | 14 | -0.1 | -1.2 | 8 | ? | 6 |
| CC(C)C[C@H]1CN=C(Nc2ccccc2)N1CCC1CCCC1 | 20 | 0.2 | -1.8 | -4 | 2.1% | 4 |
| O=C(OCc1ccc(Cl)c(Cl)c1)c1cccnc1Cl | 12 | 1.6 | -1.0 | 13 | 0.3% | 20 |
| C=CCn1c(SCC(=O)Nc2cc(C)ccc2C)nnc1-c1cnccn1 | -10 | -0.8 | -1.9 | -1 | -2.1% | -1 |
| COc1ccccc1COCC(O)CN(Cc1ccco1)Cc1ccccc1O (stereo unspecified) | 4 | 0.9 | 2.5 | -9 | 4.1% | 13 |
| NC(=O)c1ccc(NCC2COc3ccccc3O2)c([N+](=O)[O-])c1 (stereo unspecified) | 28 | 4.4 | 1.9 | -9 | 0.2% | -2 |
| CCCOc1cccc(C(=O)Nc2cc(-c3nc4ccccc4[nH]3)ccc2C)c1 | -1 | 2.5 | . | . | 3.5% | . |
| CCCCCCn1c(=O)n2n(c1=O)C[C@]1(OC(=O)Nc3c(C)noc3C)CN(S(=O)(=O)c3ccc(C)cc3)C[C@]1(O)C2 | -7 | -0.3 | -9.2 | 14 | 1.5% | 1 |
| Cc1cc(C(=O)CSc2nnnn2-c2ccccc2)c(C)n1CC1CCCO1 (stereo unspecified) | 15 | -0.5 | -1.6 | 6 | 10% | 4 |
| CCC(CC)C(=O)Nc1cccc(C(=O)N2CCCCCC2)c1 | -10 | -0.4 | -1.3 | 0 | . | 8 |
| CC(=O)O/N=C/c1c(Cl)n(C)c2ccccc12 | 2 | -1.0 | -8.9 | 1 | -0.3% | 0 |
| CCN1CCN(C(CCc2ccccc2)C(=O)NC2CCCCC2)CC1 (stereo unspecified) | . | -0.1 | -4.2 | -3 | -0.4% | -12 |
| CN1CCN(c2ccccc2NC(=O)c2cccc([N+](=O)[O-])c2)CC1 | 3 | 1.3 | -0.9 | -3 | -3.7% | -2 |
| CCN(C(=O)CSc1nnc(-c2ccc(F)cc2)n1C)C1CCS(=O)(=O)C1 (stereo unspecified) | -16 | -0.1 | -1.7 | 6 | 0.7% | 5 |
| COc1cc(C(=O)NCCOC(=O)c2cccc(N(C)C)c2)cc(OC)c1OC | -21 | 1.3 | 0.2 | -9 | 6.9% | -2 |
| Cc1ccc(C(=O)c2sc(Nc3ccccc3F)c(S(=O)(=O)c3ccccc3)c2N)c(C)c1 | -4 | 2.6 | . | . | -0.3% | . |
| COc1ccc(CCNC(=O)c2ccc(Cn3c(SCC(=O)NCCC(C)C)nc4cc5c(cc4c3=O)OCO5)cc2)cc1OC | -28 | 2.5 | . | . | -1.2% | . |
| O=C(NCCN1CCOCC1)c1ccc(NC(=O)c2ccc(Br)o2)cc1 | . | -0.3 | . | -5 | 3.2% | -1 |
| COc1cc(OC)cc(C(=O)OCC(=O)NCCCc2ccccc2)c1 | -7 | -0.5 | -12 | 0 | -1.2% | -11 |
| O=C(Cc1ccc(F)cc1)N1CCC(CC2CC(c3ccc(Cl)cc3)=NO2)(C(=O)NCC2CCCCC2)CC1 (stereo unspecified) | 0 | 0.3 | -2.2 | 0 | 0.5% | -1 |
| Cc1ccc(C(=O)NCCCNC(=O)c2ccccc2F)cn1 | 2 | -0.2 | -1.6 | -2 | 4.5% | 1 |
| COc1ccc(CCNC(=O)COC(=O)C2CC2)cc1OC | 3 | -0.3 | -4.2 | 1 | -0.1% | 6 |
| Cc1onc(-c2ccccc2)c1C(=O)n1nnc2ccccc21 | 34 | -0.5 | -0.6 | 1 | 5.4% | 7 |
| COc1c(Br)cc2c(C)c(C(=O)N3CCOCC3)oc2c1Br | 6 | 1.6 | -0.5 | 6 | 0.8% | 3 |
| COc1ccc(NS(=O)(=O)c2cc(NC(=O)c3sccc3C)ccc2N2CCOCC2)cc1 | 23 | 2.5 | -1.7 | 1 | 1.1% | -4 |
| Cc1ccc(OCC(=O)OCC(=O)Nc2ccc3c(c2)OCO3)cc1C | -5 | 3.4 | 0.2 | 0 | -0.2% | 8 |
| COc1ccc(C(C(=O)NCC2CCCO2)N(C(=O)CNC(=O)c2ccco2)c2cc(C)cc(C)c2)cc1OC (stereo unspecified) | -12 | -0.2 | 0.2 | 7 | 0.0% | -1 |

Continuation.
| Structure | TRPML1 inh | TRPML1 agonist | D2 agonist | Six1-Eya2 blk | PINK1 expr mod | CtBP-E1A inh |
| --- | --- | --- | --- | --- | --- | --- |
| O=C(O)c1cc(-c2ccco2)nc2ccccc12 | 14 | -0.6 | 2.9 | ? | 0.0% | -1 |
| O=C(NCC12CC3CC(CC(C3)C1)C2)c1nn2c(c1Cl)NC(c1ccco1)CC2C(F)(F)F (stereo unspecified) | 29 | 0.8 | -0.7 | 0 | 4.6% | 6 |
| CCn1cc(C(=O)N2CCN(c3ccc(C(C)=O)cc3)CC2)c2cc(OC)c(OC)cc2c1=O | 15&1 | 0.0&0.9 | -1.5 | -1 | 0.9%&0.1% | 0 |
| CC1C2C(c3ccccc3)N(C)C(=O)N(C)C2N(C)C(=O)N1C (stereo unspecified) | -11 | 2.1 | -3.0 | 0 | 2.7% | 0 |
| Cc1ccc(NC(=O)CN2CCc3cc4c(cc3C2)OCCCO4)cc1C | 15 | -1.0 | -3.0 | -6 | -0.8% | 0 |
| CCOc1ccc(Cl)cc1S(=O)(=O)N1CCC(C(=O)NCc2ccccn2)CC1 | 1 | 0.2 | -2.2 | 1 | 2.0% | 5 |
| CC(C)(C)n1nnnc1C(c1ccc(Cl)cc1)N1CCCc2ccccc21 (stereo unspecified) | 6 | 0.9 | -1.0 | 7 | 2.5% | 6 |
| Cc1ccc(C(=O)CN(C(=O)c2ccc(Cl)cc2)N2C(=O)c3ccccc3C2=O)cc1 | 4 | 0.8 | -0.7 | -13 | 0.1%[38.3 µM] | -5 |
| COC(=O)/C=C/CSC1=N/C(=C/c2ccc(-n3cncn3)cc2)C(=O)N1 | 6 | -0.3 | -1.2 | -11 | -0.3% | 6 |
| Nc1ncnc2c1ncn2[C@@H]1O[C@H](CNC(=O)[C@H](N)Cc2cscn2)[C@@H](O)[C@H]1O | 17 | -0.1 | -4.0 | 5 | -0.7% | 0 |
| COc1ccc(CCNC(=O)c2ccc3c(c2)CCN3S(=O)(=O)c2ccc(Cl)cc2)cc1 | 12 | 0.8 | . | . | -0.5% | . |
| Cn1cc(-c2cc3n(n2)CCC(=O)N3CCCC(=O)NCc2ccccc2Cl)c2ccccc21 | -4 | 0.1 | . | . | 3.2% | . |
| N#CCCN(C(=O)CSc1ccc2c(c1)OCCO2)c1ccccc1 | 14 | 0.2 | -2.9 | 2 | -1.6% | -1 |

Molecules shown so far that contain a COOH group, in the order listed:
| Structure | TRPML1 inh | TRPML1 agonist | D2 agonist | Six1-Eya2 blk | PINK1 expr mod | CtBP-E1A inh |
| --- | --- | --- | --- | --- | --- | --- |
| O=C(O)CCn1c(=O)[nH]c2ccccc2c1=O | 5 | -0.5 | -4.9 | 1 | -0.2% | 8 |
| O=C(O)c1cc(-c2ccco2)nc2ccccc12 | 14 | -0.6 | 2.9 | ? | 0.0% | -1 |
